# Source: PubChem BioAssay
# NS1 inh – inhibitors of influenza NS1 protein function | Potency, µM (top dose mostly 46.1 µM), without a hit: top-dose activity, positive = more growth | 270,000 compounds, 0.4% hits | S. cerevisiae slowed by influenza A NS1, growth recovery by OD600; active means well fitted rising curve with a large enough effect; inconclusive means small, poorly fitted or top-dose-only effect; inactive means no such curve, though single readings can be large or run the other way; note: nearly all actives have a fitted effect of over 50% in size
#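 Recovery from NS1-induced slow growth read by OD600 in budding yeast switched to galactose assay medium (pH 6.0, -URA) at 1:100 dilution. Compound 23 nl per well; the matching strain lacking NS1 serves as control.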
# 2A StopGo – lowers the luciferase signal of an FMDV 2A StopGo reporter | 410,000 compounds, 1.2% hits | human cells with a luciferase reporter of 2A StopGo recoding; control for the full effect not named in the record | Potency, µM (doses to about 57.9 µM), for the others: at the highest dose signal change, negative = less light; active = well fitted falling curve with a large enough effect; inconclusive = small, poorly fitted or top-dose-only effect; inactive = no such curve, though single readings can be large or run the other way; tested in HEK293T cells; note: % is set by controls: 0 for no effect and ±100 for the full control effect; nearly all actives have a fitted effect of over 45% in size; luciferase light after 4 h
# Cruzain inh noDet – cruzain (T. cruzi) inhibition without detergent. AID 1476. Potency, µM, for the others: max response, negative = inhibition, hits mostly inhibitors. 200,000 compounds, 2.3% hits. purified cruzain, Z-FR-AMC fluorescence, no detergent. P25779;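 note: plate controls were enzyme without inhibitor for no effect and buffer without enzyme for full effect; nearly all actives have a fitted effect of over 40% in size; top concentration of the series not given in the record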
# Target sequence (P25779 123-467 limits assumed): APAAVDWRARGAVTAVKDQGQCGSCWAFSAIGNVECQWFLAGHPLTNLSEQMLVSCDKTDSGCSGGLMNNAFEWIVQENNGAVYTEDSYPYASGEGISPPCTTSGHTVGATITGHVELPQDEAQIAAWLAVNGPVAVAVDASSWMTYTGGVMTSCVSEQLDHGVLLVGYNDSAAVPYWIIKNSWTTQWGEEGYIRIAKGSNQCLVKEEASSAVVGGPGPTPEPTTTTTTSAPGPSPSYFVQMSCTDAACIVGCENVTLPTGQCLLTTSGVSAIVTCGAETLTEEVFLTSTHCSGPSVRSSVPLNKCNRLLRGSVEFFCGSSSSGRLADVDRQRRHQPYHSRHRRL
#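 Detergent-free condition (0.00005% Triton X-100) in acetate buffer pH 5.5 with DTT. 1.5 nM enzyme and compound were pre-mixed 15 min, then 2 uM Z-FR-AMC substrate added; reaction progress from fluorescence change between first and third reads (60 s).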
# RE007 growth inh – less growth of the S. pombe RE007 Vpr strain. Potency, µM (top dose mostly 92.2 µM), without a hit: at the highest dose activity change, negative = less growth. S. pombe RE007 Vpr strain, BacTiter-Glo ATP luminescence, 24 h; control for the full effect not named in the record. 360,000 compounds, 0.21% hits; active = well fitted falling curve with a large enough effect; inconclusive = small, poorly fitted or top-dose-only effect; inactive = no such curve, though single readings can be large or run the other way;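 note: % is set by controls: 0 for no effect and ±100 for the full control effect; nearly all actives have a fitted effect of over 50% in size; the assay follows cell death caused by Vpr and the record does not say whether a fall means rescue or toxicity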
#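 Fission yeast strain RE007, carrying one chromosomally integrated HIV-1 vpr copy, was seeded at OD 0.01 in PMG+AL medium with 23 nL pinned compound. After 24 h at 30 °C and 99% humidity, viability was read by BacTiter-Glo luminescence.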
# SARS PLpro yeast – SARS-CoV PLP inhibition in yeast; S. cerevisiae expressing SARS-CoV PLpro, growth rescue; control for the full effect not named in the record; Potency, µM (series often up to 32.9 µM), for the others: at the highest dose activity, positive = growth rescue; 330,000 compounds, 0.19% hits; AID 485353; active means well fitted rising curve with a large enough effect; inconclusive means small, poorly fitted or top-dose-only effect; inactive means no such curve, though single readings can be large or run the other way; note: 0% is about no effect; nearly all actives have a fitted effect of over 55% in size; growth read by luminescence after 48 h
# Lassa entry inh – blocks Lassa virus binding to or entry into cells; Lassa virus pseudotype entry inhibition, cell reporter; control for the full effect not named in the record; Potency, µM (top dose mostly 37.9 µM), without a hit: top-dose activity change, negative = inhibition, hits mostly inhibitors; 300,000 compounds, 1.2% hits; active means well fitted inhibition curve with a large enough effect; inconclusive means small, poorly fitted or top-dose-only effect, or effect the other way; inactive means flat fitted curve, though single readings scatter; tested in HEK293 cells; note: % is set by controls: 0 for no effect and ±100 for the full control effect; nearly all actives have a fitted effect of over 50% in size; luciferase read-out
# Cruzain inh Det – cruzain (T. cruzi) inhibition with detergent; P25779; purified cruzain, Z-FR-AMC fluorescence, 0.01% Triton; 200,000 compounds, 0.43% hits; Potency, µM, for inactives: max response, negative = inhibition, most hits filed as inhibitors; AID 1478;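 note: plate controls were neutral wells for no effect and buffer without enzyme for full effect; nearly all actives have a fitted effect of over 40% in size; top concentration of the series not given in the record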
#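 Z-FR-AMC hydrolysis (2 uM substrate) by cruzain (1.5 nM) monitored kinetically at ex 360/em 450 nm after 15 min room-temperature compound exposure; 0.01% Triton X-100, pH 5.5, 5 mM DTT.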
# MARV entry inh – blocks Marburg virus binding to or entry into cells | Potency, µM (top dose mostly 37.8 µM), for inactives: at the top dose activity change, negative = inhibition, most hits filed as inhibitors | Marburg virus pseudotyped entry inhibition, cell reporter; control for the full effect not named in the record; about a third of the inactives were read at about 46 µM | 300,000 compounds, 1.8% hits; active = well fitted inhibition curve with a large enough effect; inconclusive = small, poorly fitted or top-dose-only effect, or effect the other way; inactive = flat fitted curve, though single readings scatter; tested in HEK293 cells; about a fifth of its hits are not listed in these tables; note: % is set by controls: 0 for no effect and ±100 for the full control effect; luciferase read-out
# * marks the source's active call; other numbers are inactive results; ? = inconclusive; nt = no result given; & = joins results of further samples; [ ] = dose if it differs, or a comment. Unless noted, calls come from the whole dose curve; as a rule, active = well fitted curve in the direction sought with a large enough effect; inconclusive = small, poorly fitted or top-dose-only effect, or another doubt; inactive = no such curve, though single readings can be large; an effect the other way counts as inactive or inconclusive. Potency is the fitted concentration of half-maximal effect. Compounds as they come, and some 4.7% of all compounds hit somewhere here.
SMILES,NS1 inh,2A StopGo,Cruzain inh noDet,RE007 growth inh,SARS PLpro yeast,Lassa entry inh,Cruzain inh Det,MARV entry inh
Nc1nnc(SCC(=O)NC2CCCCC2)s1,9%,1%,0%,-4%,6%,0%,-0.6%,?
CCOC(=O)c1c(C)n(Cc2ccco2)c2ccc(O)cc12,?,?,-2%,5%,nt,-11%,-4.9%,?
COc1ccc(C2C(C#N)=C(N)OC3=C2C(=O)CCC3)cc1Cn1nc(C)c([N+](=O)[O-])c1C (stereo unspecified),-4%,-12%,-17%,5%,-3%,-1%,-10.0%,-2%
O=C(NC12CC3CC(CC(C3)C1)C2)c1c(Cl)cccc1Cl,-2%,-6%,nt,-19%,4%,4%[46.1 µM],nt,20%[46.1 µM]
Cc1cc(NC(=O)Cc2c(F)cccc2Cl)no1,-1%,-18%,11%,-20%,-2%,27%,7.1%,-1%
COc1cc(C(=O)NCC(=O)N/N=C(\C)Cc2ccccc2)cc(OC)c1OC,-7%,-12%,nt,-17%,-13%,?,nt,-4%[46.1 µM]
COCCN(Cc1ccccc1)C(=O)c1cc(S(=O)(=O)N2CCCCCC2)ccc1OC,nt,-9%,nt,-10%,2%,-13%,nt,-17%
CN(C)CCCNC(=O)c1cc(C(=O)c2ccccc2)c[nH]1,5%,8%,nt,17%,3%,6%[46.1 µM],nt,-9%[46.1 µM]
CCc1ccc(NC(=O)CN(c2ccc(C)cc2)S(=O)(=O)c2c(C)nn(C)c2C)cc1,nt,-4%,?,nt,nt,7%[46.1 µM],-3.7%,26%[46.1 µM]
CCSc1nc(N)nc(-c2cccs2)c1C#N,9%,9%,-19%,?,-33%,7%,-11%,0%
COc1ccc(NC(=O)c2cc(-c3ccc(C)c(C)c3O)n[nH]2)cc1Cl,2%,?,nt,0%,-3%,17%[46.1 µM],nt,-38%[46.1 µM]
CCOC(=O)Cn1nc(NC(=O)c2ccc(C(=O)OC)cc2)cc1C,4%,11%,nt,-21%,?,4%,nt,-25%
CC(C)OC(=O)NCCOC(=O)Nc1ccc(Cl)cc1,-4%,-3%,nt,1%,0%,8%,nt,4%
CC(C)n1c(NCc2c[nH]c3ccccc23)nc2ccccc21,-1%,-7%,13%,-11%,-7%,0%,1.6%,?
COc1cc(S(=O)(=O)N2CCN(c3ccccc3F)CC2)ccc1Cl,?,-4%,-6%,10%,-11%,-8%,5.3%,?
CCOc1ccc(NC(=O)CN(C)S(=O)(=O)c2ccc(-c3ccc(=O)[nH]n3)s2)cc1,8%,-8%,nt,6%,-2%,-3%[46.1 µM],nt,-20%[46.1 µM]
CCOC(=O)[C@@H]1[C@H]2COc3ccccc3[C@@H]2N2C(=O)N(c3ccccc3)C(=O)[C@@]12C,0%,-10%,nt,10%,6%,nt,nt,nt
COC(=O)c1ccccc1NC(=O)c1cccs1,-1%,-5%,-2%,-27%,1%,6%,-1.2%,-1%
CC1=C(C(=O)N2CCOCC2)C(c2cccc3ccccc23)NC(=S)N1 (stereo unspecified),-2%,-1%,-3%,6%,?,30%,-3.1%,?
O=C(O)CCC(=O)N1N=C(c2cccs2)CC1c1cn(-c2ccccc2)nc1-c1ccccc1 (stereo unspecified),10%,-11%,?,0%,-9%,-1%,-16%,6%
COc1ccc(NC(=O)CCNC(=O)c2ccccc2Cl)cc1OC,4%,0%,nt,-13%,-1%,nt,nt,nt
COc1cccc(/C(O)=C2/C(=O)C(=O)N(CCN3CCOCC3)C2c2cccs2)c1 (stereo unspecified),1%,0%,-2%,7%,-1%,24%,3.1%,?
CC1(C)N=C(c2ccc(Cl)cc2)C(=O)N1,-3%,-2%,8%,-2%,1%,-26%[14.3 µM],2.5%,-1%
CCCNC(=O)c1ccc(Cn2c(=S)[nH]c3c([nH]c4ccc(OC)cc43)c2=O)cc1,?,-2%,19%,5%,14µM*,2%,-1.5%,?
Cc1nn(CC(=O)NCc2cccnc2)c(=O)c2ccccc12,-3%,16%,-11%,-6%,2%,0%,-0.6%,-22%
CN(C)S(=O)(=O)c1ccc(C(=O)Nc2nnc(-c3ccc4c(c3)CCCC4)o2)cc1,3%,-19%,?,4%,0%,nt,-2.7%,-1%
CSCCC(NS(=O)(=O)c1ccc2c(c1)oc(=O)n2C)C(=O)N1CCN(c2cc(C)ccc2C)CC1 (stereo unspecified),nt,-21%,-4%,nt,nt,1%[46.1 µM],-2.2%,nt
CC(=O)c1c(C)[nH]c(C(=O)CSc2nnc(-c3ccccc3)o2)c1C,9%,?,?,7%,-1%,?,0.1%,?
CCc1cc(C(=O)c2ccccc2)c(N)s1,-3%,-10%,nt,-14%,-1%,-16%[46.1 µM],nt,-2%[46.1 µM]
Cc1cc(-c2ccc(C(C)C)c(S(=O)(=O)NCCN3CCC(C)CC3)c2)on1,14%,7%,nt,1%,1%,nt,nt,nt
COc1cc(-c2nc(S(=O)(=O)c3ccccc3)c(N3CCOCC3)o2)cc(OC)c1OC,-50%,13%,?,4%,4%,-25%,-2.8%,-15%&-15%
Cc1cccc(NC(=O)CSCC(=O)Nc2ccccc2N2CCCC2)c1,-1%,0%,nt,4%,-2%,17%,nt,?
CCn1c(N)cc(=O)[nH]c1=S,nt,-10%,nt,-27%,nt,11%,nt,?
Fc1cccc(Cc2noc(CN3CCCN(C4Cc5ccccc5C4)CC3)n2)c1,3%,7%,nt,-11%,-2%,7%[46.1 µM],nt,11µM*
CCOc1ccc(S(=O)(=O)NC2CCCC2)cc1,-19%,43%[activator],nt,3%,25%,nt,nt,nt
COCCn1c(SCCOc2ccccc2)nc2ccccc2c1=O,7%,25µM*,nt,31%,-5%,-8%,nt,?
COc1ccccc1NC(=O)c1sc2ncn(Cc3ccccc3C)c(=O)c2c1C,17%,nt,?,2%,8%,-9%,4.4%,?
COc1ccc(OC)c(NC(=O)CS(=O)(=O)Cc2nc(-c3ccc(C)cc3)oc2C)c1,nt,-4%,-13%,nt,nt,5%[46.1 µM],0.3%,12%[46.1 µM]
Cc1cccnc1NC(=O)Nc1ccc(Cl)cc1,-29%,54%[activator],nt,-11%,-3%,nt,nt,nt
CCN1CCN(c2cn[nH]c(=O)c2Cl)CC1,-1%,-9%,nt,14%,-1%,-11%,nt,14%[46.1 µM]
CCN1CCN(C(=O)CSCc2nc(-c3ccc(OC)c(OC)c3)oc2C)CC1,1%,2%,-12%,8%,-6%,nt,3.4%,nt
CCN1CCN(c2nc(C)nc3c2sc(=S)n3C)CC1,-9%,-30%,-19%,-5%,-18%,9%,-8.5%,-11%&-11%
CCOc1ccc(N(CC(=O)NCc2ccc(F)cc2)S(=O)(=O)c2c(C)noc2C)cc1,-5%,-9%,9%,-3%,2%,nt,-1.5%,nt
CC(CC(=O)O)CC(=O)Nc1ccc(S(N)(=O)=O)cc1 (stereo unspecified),9%,-21%,-4%,12%,3%,2%,-1.0%,16%
O=C(c1ccco1)N1N=C(c2cccs2)CC1c1ccco1 (stereo unspecified),-1%,-4%,nt,6%,0%,9%,nt,13%
Cn1ncc2c(O/N=C(\N)c3ccc(C(F)(F)F)cc3)ncnc21,-73%,22µM*,nt,-3%,-22%,nt,nt,nt
CCOC(=O)C(NC(C)=O)(OCc1ccc(F)cc1)C(F)(F)F (stereo unspecified),-7%,-20%,-1%,-19%,-4%,8%,-3.3%,27%
Cc1c(C#N)c(SCC(N)=O)nc2c1CCCC2,?,-8%,10%,28%,3%,3%,0.3%,-24%
O=C(NCCc1ccc(F)cc1)Nc1ccccc1Cl,-40%,3%,nt,9%,-8%,6%[46.1 µM],nt,0%[46.1 µM]
O=C(C1CCC1)N1CCc2cc(S(=O)(=O)NCCCN3CCCCC3)ccc21,-3%,2%,nt,-5%,13%,nt,nt,nt
CCOC(=O)N1CCN(C(=O)C2CCN(S(=O)(=O)c3ccc(NC(C)=O)cc3)CC2)CC1,5%,-25%,nt,1%,-10%,nt,nt,nt
COc1ccccc1NC(=O)NCCN1CCN(c2cccc(Cl)c2)CC1,-2%,-24%&-8%,8%,-1%,0%,4%[46.1 µM],-0.7%,-4%&-4%[46.1 µM]
CCn1c(=O)cc(SCC(=O)Nc2ccc(C)c(F)c2)c2ccccc21,nt,?,0%,nt,nt,3%[46.1 µM],0.7%,?
CCOc1ccc(NC(=O)CN(C)C(=O)CN2C(=O)c3ccc([N+](=O)[O-])cc3C2=O)cc1OCC,nt,-18%,nt,7%,7%,0%,nt,-21%
CCOC(=O)C(=O)C1=C(N2CCOCC2)/C(=C\c2cccc([N+](=O)[O-])c2)CC1,0%,-15%,10%,-13%,-15%,16%,-18%,21%
COc1ccc(-n2c(SCC(=O)/C(C#N)=C(\C)N)nc3ccccc3c2=O)cc1OC,6%,-8%,nt,30%,0%,nt,nt,nt
COc1ccc2occ(NC(C)=O)c2c1,-13%,-21%,-4%,-3%,-14%,9%,4.2%,-1%
Cc1ccc(S(=O)(=O)NCCC(=O)NC2CCCC2)cc1,-3%,-4%,-3%,-11%,-1%,13%,2.8%,-5%
COc1cc(CN(C(=S)NCC(=O)NC2CC2)C2CCCC2)cc(OC)c1OC,-6%,5%,?,6%,-28%,?,5.5%,-18%
CC(C)C[C@H](NC(=O)[C@@H]1Cc2ccccc2CN1)C(=O)Nc1ccc(C(C)C)cc1,7%,-7%,nt,-2%,2%,-18%[46.1 µM],nt,?

# The results go on:
SMILES,NS1 inh,2A StopGo,Cruzain inh noDet,RE007 growth inh,SARS PLpro yeast,Lassa entry inh,Cruzain inh Det,MARV entry inh
COC(=O)c1cc(C(=O)N2CCOCC2)cc([N+](=O)[O-])c1,nt,-12%,nt,4%,-7%,3%[46.1 µM],nt,-2%[46.1 µM]
Cc1ccc(C(=O)NCCNC(=O)COc2ccc(Cl)cc2)cn1,3%,-10%,nt,18%,1%,?,nt,6%[46.1 µM]
CC(=O)NCCc1ccc(S(=O)(=O)N(C)C2CCS(=O)(=O)C2)cc1 (stereo unspecified),4%,-2%,1%,-12%,9%,35%[14.3 µM],3.9%,0%
COc1ccc2[nH]c3c(c2c1)CCN1C(=O)C(CC(=O)NCC24CC5CC(CC(C5)C2)C4)C[C@H](C(=O)N2CCOCC2)[C@@]31CCC1CCCC1 (stereo partly specified),nt,?,nt,-10%,10%,nt,nt,2%
CN(Cc1n[nH]c(=S)n1C)S(=O)(=O)c1ccccc1,14%,nt,3%,0%,0%,11%,2.9%,9%
